# NPYLR7 ag: agonists of mosquito NPYLR7 receptor, primary screen, cell-based, Aedes aegypti, calcium fluorescence, mosquito biting behavior; 270,000 tested, 0.15% active; activation, % at 10 µM; HEK293T NPYLR7/Galpha15, GCaMP6s calcium fluorescence; in the data active means activation above about 40%;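 further: 0% = vehicle and 100% = reference agonist at the receptor; some compounds past the cut are filed as inactive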
# NPYLR7 ag max-min: further read-out of NPYLR7 ag, marked with its call; activation, %; measured here: Max-Min RFU normalised activation; some inactives read as strong as hits;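 span of the calcium signal over five minutes; 0% = vehicle and 100% = native peptide agonist; compound fluorescence can raise it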
# * hit, by the source's call; & = joins results of further samples. An excerpt; count on the stated rates, not on these rows.
SMILES,NPYLR7 ag,NPYLR7 ag max-min
CCOC(=O)N1CCN(C(=O)c2csc(CSc3nnc(-c4cccnc4)n3-c3cc(Cl)ccc3C)n2)CC1,-1,6
COC(=O)C1=C(C)N(Cc2ccccc2)C(=O)NC1c1ccccc1F (stereo not given),-3,-9
CC(NCCC(c1ccccc1)C1CCOC(C)(C)C1)c1cccs1 (stereo not given),6,2
O=C(c1ccc(C(F)(F)F)nc1)N1CCOC(COCc2ccc(F)cc2Cl)C1 (stereo not given),24,33
CCN1CC(n2cnc(-c3ccccc3)c2-c2ccc3occc3c2)CC1=O (stereo not given),17,5
CCn1cc(CN2CCc3c([nH]c4ccccc34)C2c2cccc(OC)c2)c(C)n1 (stereo not given),-2,-7
CCCC1(CNC(=O)CC(=O)Nc2ccc(C)cc2)CCC1,7,2
Cc1cc(O)c(C(c2ccccc2)N2CCN(c3ccccn3)CC2)c(=O)n1Cc1ccccn1 (stereo not given),5,1
c1coc(CN(CCN2CCOCC2)Cc2nc3c(s2)CCCC3)c1,-15,-16
Cc1nc2scc(C)n2c(=O)c1NC(=O)CC(c1ccccc1)c1ccccc1,9,-3
CCN(CC1CCOCC1)C(=O)c1ccc(CC2CCCNC2)cc1 (stereo not given),-1,9
CN(C(=O)/C=C/c1cnn(C)c1)C1CCCN(C2Cc3ccccc3C2)C1 (stereo not given),-1,-1
Nc1c(CC(=O)O)cccc1C(=O)c1ccccc1,-3,-10
COCCCNC(=O)c1cc(-c2ccccc2OC)n2nc(-c3ccccc3)cc2n1,18,21
COC(F)(C(N)=O)C(F)(F)F (stereo not given),-2,-13
CCOC(=O)Cc1c(C)nc2ncnn2c1N1CCN(C(=O)NC2C[C@H]2c2ccccc2)CC1 (stereo not given in full),14,4
Cc1cc(N)n(-c2nc(-c3ccccc3)cs2)n1,-3,-5
Cc1cccc(C(C)C)c1NC(=O)C1CSCCS1 (stereo not given),0&-15,0&-18
Cc1nnc(NCc2cc(F)cc(F)c2)c(C#N)c1C,3,3
Cc1cc(N2CCOCC2CC(O)c2cccs2)n2ncnc2n1 (stereo not given),10,5
Cc1ccc(OCCOc2ccc(C=C3C(=O)N(C)C(=O)N(C)C3=O)cc2)cc1,0,1
CC(C)COC(=NCc1cccnc1)NC(=O)c1cccs1,-11,-5
Cc1ccccc1-n1cc(CC(C)C(=O)O)c2ccccc21 (stereo not given),-4,-7
Cc1ccccc1-c1cnc(-c2cccnc2)nc1C1CCN(C(=O)c2ccc3cc[nH]c3c2)CC1,12,3
CCS(=O)(=O)N1CCN=C1SCc1ccc(C)cc1,0,1
CC(C)Oc1ccc(NC(=O)N2CCOC(C(N)=O)C2)cc1Cl (stereo not given),6,4
NC(=O)c1ccc(NC(=O)CCCn2nc(-c3ccccc3)ccc2=O)cc1,10,11
Cc1cc(CN(C)C(=O)c2ccccc2OC2CCN(S(C)(=O)=O)CC2)n[nH]1,7,5
CCOC(=O)[C@@H]1CN(C(=O)c2ccc(Cl)cc2)[C@H]2c3ccccc3O[C@@H]12,-1,1
Cc1ccsc1CN(Cc1ccc2c(c1)OCO2)C(=O)CN(C(=O)Cc1ccccc1)C1CCCCC1,-10,-15
CC(=O)NCCn1ncc2c(N3CCCCCC3)ncnc21,-1,-1
O=C(c1cc(C2CC2)n(CC(=O)N(Cc2ccccc2)c2ccccc2)n1)N1CCOCC1,-9,-10
Cc1ccc(S(C)(=O)=O)cc1NC(=O)N(C)CC1CCCO1 (stereo not given),4,0
Cc1cnccc1NCCNC(=O)c1cc(C)c(C)n(C)c1=O,9,9
O=C(CC(c1ccccc1)C1([N+](=O)[O-])C(=O)c2ccccc2C1=O)c1ccccc1 (stereo not given),-3,-4
O=C(CC12CC3CC(CC(C3)C1)C2)N[C@@H](CO)Cc1ccccc1,1,-3
Cc1nc(Cn2c(C)c(C(=O)NCc3ccc4c(c3)OCCO4)sc2=O)cs1,12,8
Brc1cccc(C2=NNC(=NCCc3cccs3)SC2)c1,9,6
COc1ccc(-c2ccc(=O)n(CCCC(=O)Nc3cc(C)ccc3C)n2)cc1OC,2,2
Cc1c(Br)cccc1C(=O)N1CCC(C(C)O)CC1 (stereo not given),9,4

# Single records (already shown):
# Entry for O=C(CC12CC3CC(CC(C3)C1)C2)N[C@@H](CO)Cc1ccccc1 = NPYLR7 ag: 1; NPYLR7 ag max-min: -3
# Entry for c1coc(CN(CCN2CCOCC2)Cc2nc3c(s2)CCCC3)c1 = NPYLR7 ag: -15; NPYLR7 ag max-min: -16

# Remaining list, next part
SMILES,NPYLR7 ag,NPYLR7 ag max-min
O=C(NCc1cccnc1)c1cc2n(n1)CCN(Cc1ccc(F)cc1)C2=O,1,1
COc1ccc(CN2CCn3nc(C(=O)NC4CCCCNC4=O)cc3C2=O)cc1 (stereo not given),9,22
COc1ccc(C)c2sc(N(Cc3ccncc3)C(=O)c3ccc(S(=O)(=O)N(C)C)cc3)nc12,-5,-11
COc1ccc(S(=O)(=O)Nc2ccc(S(N)(=O)=O)cc2)cc1OC,2,9
Cc1ccc(NC(=O)CSCC(=O)NCC2(N(C)C)CCCC2)cc1,6,5
C=CCSc1nc(O)c(C(c2ccccc2)c2ccccc2)c(=O)[nH]1,-14,-18
O=C(NCc1ccncc1)c1ccc(CSc2nc(-c3ccccc3)cc(N3CCN(c4cccc(C(F)(F)F)c4)CC3)n2)cc1,12,-1
O=c1ccc(-c2ccccc2)nn1CCn1ccnc1-c1ccncc1,-1,-7
O=C(c1cc(COc2ccc(F)cc2Cl)on1)N1CCCCC1CCc1ccccn1 (stereo not given),-6,-7
Cc1cc(C(=O)N(Cc2ccccn2)c2nc3ccc(Cl)cc3s2)on1,7,6
COc1ccc(CCNC(=O)N2CCN(c3ccc(NC(=O)c4ccccc4F)cn3)CC2)cc1,26,20
CCCCCOc1ccc(C(=O)N(C)C(c2ccccc2)c2ccccc2)cc1OCCCCC,2,-1
COc1ccc(-c2nc(SC3CCCC3)c3c(=O)n(C)c(=O)n(C)c3n2)cc1,5,6
O=C(NC1CCN(C(=O)C2CC(=O)N(c3ccccc3F)C2)CC1)c1ccccc1 (stereo not given),-18,-19
C=CCn1c(C2CC(=O)N(c3ccc(OCC)cc3)C2)nc2ccccc21 (stereo not given),0,0
COCCCNC(=O)C(C1CCCC1)N1CCN(C(=O)c2cc(OC)cc(OC)c2)CC1 (stereo not given),-7,2
OCCN1CCN(C2CCN(C3CCCCCC3)CC2)CC1,2,-1
CCn1ncnc1-c1c(-c2ccccc2)ncn1CCc1cccs1,2,1
Cc1nc(CCNC(=O)c2cn(CCN3CCOCC3)nn2)nc2c1CCCC2,14,7
CCOc1ccc(C(=O)N2CC(=O)N3CCc4c(F)cccc4C3C2)cc1 (stereo not given),31,28
COc1ccccc1-c1ccc2c(c1)C(C)(Cc1ccc(Cl)c(Cl)c1)C(=O)N2 (stereo not given),-1,2
Cc1cc(C)c(-c2ccc(=O)n(CC(=O)NC3CCCC3)n2)cc1C,11,3
O=C(NCC(F)(F)F)c1cnc(-c2ccccc2)s1,4,3
CC(Oc1ccc2c(c1)OCO2)C(=O)N1CCN(c2ccc3nncn3n2)CC1 (stereo not given),6,12
C=c1oc(C)cc1=C1NN=C(CCC(=O)NCC2OCCc3ccccc32)O1 (stereo not given),2&3,-2&1
O=C(N/N=c1\oc2ccccc2cc1-c1nc2ccccc2[nH]1)c1ccccc1,-7,-12
Cc1occc1C(=O)N1CCCC(C(=O)Nc2cccc(-c3cc4ccccc4[nH]3)c2)C1 (stereo not given),-6&14,-7&9
N#Cc1ccc(Nc2ccccc2)c(N)c1,4,3
COc1ccc(-c2csc(=Nc3ccccc3F)n2CC2CCCO2)cc1 (stereo not given),-9,-14
CN(C)CC(C)(C)CN1CCC(O)(c2cccc(C(F)(F)F)c2)CC1,4,-2
CC(=O)CC(C)(C)S(=O)(=O)c1cccc2c(S(=O)(=O)C(C)(C)CC(C)=O)cccc12,-1,-2
COc1cc(-c2c(C)c3ccccc3[nH]c2=O)cc(OC)c1OC,24,14
Cc1ccc(F)cc1NC(=O)CN1C(=O)c2ccc([N+](=O)[O-])cc2C1=O,-7,-13
CCOC(=O)c1ccc2c(c1)nc(SCc1cc(Br)cc(Br)c1)n2Cc1ccco1,3,-1
COc1ccc(-n2ccc3c(nnc4c(-c5cccc(Cl)c5)c(C)nn43)c2=O)cc1,-1,6
CC(C)c1ccc(C(C)NC(=O)CCn2cc(S(N)(=O)=O)cn2)cc1 (stereo not given),8,7
CC1=CC=CC2=NC(=NS(=O)(=O)c3ccc(F)cc3F)c3ccccc3CN12,-1&2,-8&6
CCOC(=O)c1nn(-c2ccc(C(F)(F)F)cc2)c(=O)c2c(NC(=O)C(C)(C)C)scc12,13,10
Cc1cc(F)cc2c(NCC(=O)NCc3ccco3)c(C#N)cnc12,-1,0
CC(C)CCn1ccc2c(nnc3c(-c4ccccc4)cnn32)c1=O,26,18
COc1ccc(OCc2cc(C(=O)N(C)CC3CCCCO3)no2)c(Cl)c1 (stereo not given),3,-1
O=C(Cc1cccc2ccccc12)NCCc1nnc2ccccn12,-1,5
CCCCS(=O)(=O)N1CCN(c2ncccc2C(=O)NCCc2ccc(OC)c(OC)c2)CC1,15,7
COCCNS(=O)(=O)c1ccc(OC)c(N2CCN(C(=O)c3c(F)cccc3F)CC2)c1,24,12
COCC(=O)NC1c2ccccc2-c2ccccc21,9,7
CN(Cc1ccco1)C(=O)c1ccccc1N1CCC(NC(=O)Cc2ccccc2)CC1,1,14
O=C(CCc1ccco1)N1CCN(Cc2ccc(-c3noc(-c4ccccc4)n3)cc2)CC1,4,5
CC1CC(C)CN(Cc2nc3c(c(=O)n(C)c(=O)n3C)n2CC(N)=O)C1 (stereo not given),1,9
COc1ccc(Cn2ccnc2CN(C(=O)c2ccc(Cl)cc2)C2CCCCC2)cc1,-1,5
O=C(Nc1ccc(Cl)nn1)c1cccc(F)c1F,-23,-25

# A second format for part of the listing above.
mol | NPYLR7 ag | NPYLR7 ag max-min
CC(=O)CC(C)(C)S(=O)(=O)c1cccc2c(S(=O)(=O)C(C)(C)CC(C)=O)cccc12 | -1 | -2
CN(C(=O)/C=C/c1cnn(C)c1)C1CCCN(C2Cc3ccccc3C2)C1 (stereo not given) | -1 | -1
CCn1cc(CN2CCc3c([nH]c4ccccc34)C2c2cccc(OC)c2)c(C)n1 (stereo not given) | -2 | -7

# Filtered by structure, those above containing an aryl thioether with sulfur outside any ring.
SMILES,NPYLR7 ag,NPYLR7 ag max-min
CCOC(=O)N1CCN(C(=O)c2csc(CSc3nnc(-c4cccnc4)n3-c3cc(Cl)ccc3C)n2)CC1,-1,6
C=CCSc1nc(O)c(C(c2ccccc2)c2ccccc2)c(=O)[nH]1,-14,-18
O=C(NCc1ccncc1)c1ccc(CSc2nc(-c3ccccc3)cc(N3CCN(c4cccc(C(F)(F)F)c4)CC3)n2)cc1,12,-1
COc1ccc(-c2nc(SC3CCCC3)c3c(=O)n(C)c(=O)n(C)c3n2)cc1,5,6
CCOC(=O)c1ccc2c(c1)nc(SCc1cc(Br)cc(Br)c1)n2Cc1ccco1,3,-1

# Remaining list, next part.
SMILES,NPYLR7 ag,NPYLR7 ag max-min
Cc1onc(-c2ccccc2)c1C(=O)NCC1Cc2cc(F)ccc2O1 (stereo not given),25,34
O=c1[nH]cnc2scc(C3COc4ccccc4O3)c12 (stereo not given),5,6
N#Cc1ccccc1S(=O)(=O)N1CCN(c2nccc(-c3ccco3)n2)CC1,-5,-2
O=C(NCc1ccc(Oc2cccnc2)c(F)c1)N1CCc2ccc(F)cc21,8,7
CCOC(=O)CCNC(=O)N1CCCC(Nc2ccc3c(c2)OCO3)C1 (stereo not given),17,10
O=C(Nc1ccc2c(c1)Cc1ccccc1-2)c1ccco1,2,6
CCC(C)N(Cc1cccc(OS(=O)(=O)c2ccc(F)cc2)c1)C(=O)Nc1cccc(C)c1C (stereo not given),-2,7
CN(C)C1CCCN(C(=O)CCC(=O)c2cccc3ccccc23)CC1 (stereo not given),7,3
CCSc1nnc(NC(=O)Cc2ccc([N+](=O)[O-])cc2)s1,-1,-2
CN(Cc1cccnc1)c1ccc(-c2nc(COc3ccccc3)no2)cn1,11,10
CCN1C(=O)/C(=C/C=C2/Sc3ccccc3N2CC)SC1=Nc1ccccc1C,-4,-7
O=S(=O)(NCc1cc(Cl)ccc1OC(F)F)c1cnc[nH]1,0,-1
Cc1ccc(CN2CCNC(=O)C2CC(=O)N(C)CCc2ccccn2)o1 (stereo not given),8&2,4&0
Cc1ccc(NC(=O)CC(C(=O)O)N2CCN(C)CC2)cc1C (stereo not given),-2,-3
CCCCn1c(CO)cnc1S(=O)(=O)Cc1ccccc1,14,11
CCNC(=O)C(C)Sc1nnnn1C1CCCCC1 (stereo not given),16,8
CC(C)(C)NC(=O)N1CCC(C(NC(=O)c2ccccc2)C(=O)NCc2ccccc2)CC1 (stereo not given),6,3
COCC(=O)NC1CCN(c2ccccc2C(=O)N2CCN(C3CCCCCC3)CC2)CC1,24,29
COCC(=O)N(Cc1cc(NC(=O)c2cccs2)ccc1N(C)C)CC1CC1,18,17
COc1cccc(NC(=O)CSc2ncnc3c2oc2ccccc23)c1,5,1
CC1CCCN(C(=O)c2oc3ccccc3c2CSc2ncn[nH]2)C1 (stereo not given),2,0
CC(C)(CNC(=O)Nc1nc2c(s1)CCCC2)c1cccs1,5,3
O=C(NCc1ccc(F)cc1)c1ccc(CSc2nc(Cl)cc(N3CCC(Cc4ccccc4)CC3)n2)cc1,8,13
Cn1c(=O)[nH]c(=O)c2c1nc(N1CCN(Cc3cccc(Cl)c3)CC1)n2Cc1cccc(Cl)c1,-9,-8
Cc1cc2cc(CNC(=O)CCC3CCCCC3)ccc2[nH]1,5,0
CCS(=O)(=O)Oc1ccccc1CN(Cc1ccc(F)cc1)C(=O)NC(C)C,10,17
CC(C)(C)c1ccc(OCCC(=O)OCC(=O)NC(N)=O)cc1,-8,-8

# Compound activity: PubChem, Fisher Drug Discovery Resource Center
